# gsp ag = qHTS for Agonist of gsp, the Etiologic Mutation Responsible for Fibrous Dysplasia/McCune-Albright Syndrome: qHTS. Potency, µM (titrated, usually from 76.9 µM), inactives show at the highest dose activation (cAMP increase), usual class: activators. AID 624287, 2012. hit rate 0.13% among 340,000. gsp mutant cells, cAMP HTRF, 30 min; control for the full effect not named in the record; active = well fitted activation curve with a large enough effect; inconclusive = small, poorly fitted or top-dose-only effect, or another doubt; inactive = no such curve, though single readings can be large or run the other way; cell line not stated here;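 also: phosphodiesterase inhibitor Ro 20-1724 added with compounds to block cAMP breakdown; potency is read from the fitted curve at half-maximal effect; nearly all actives have a fitted effect of over 60% in size; about a fifth of the inactives were tested at one dose only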
#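 Cells in DMEM/10% FBS with G418 were pretreated with compounds in DMSO plus […] (300 uM stock) for 30 min at 37C. cAMP was measured by HTRF (cAMP-d2 plus anti-cAMP antibody-K) after 30 min at room temperature.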
# gsp antagonist = qHTS for Antagonists of gsp, the Etiologic Mutation Responsible for Fibrous Dysplasia/McCune-Albright Syndrome: qHTS; gsp-mutant cells, cAMP HTRF, 30 min; control for the full effect not named in the record; Potency, µM (highest dose often 76.9 µM), without a hit: at the highest dose activity change, negative = inhibition, usual class: inhibitors; hit rate 0.4% among 340,000; active = falling curve of any shape with a large fitted effect; inconclusive = falling curve, mostly with a smaller effect; inactive = flat or rising curve; cell line not stated here;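 also: intracellular cAMP measured with PDE inhibitor Ro 20-1724 present during compound exposure; potency is read from the fitted curve at half-maximal effect; % is scaled to controls: 0 for no effect and ±100 for the full control effect; nearly all actives have a fitted effect of over 65% in size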
#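 HTRF cAMP measurement after 30 min RT detection following 30 min, 37C compound treatment alongside […] (added as 300 uM solution) in G418-selected cells seeded at 2000/well and grown 16–24 h.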
# Sfp PPTase inh = qHTS Assay for Inhibitors of Bacillus subtilis Sfp phosphopantetheinyl transferase (PPTase); 4'-phosphopantetheinyl transferase ffp (Bacillus subtilis), Q9F4F7; Biochemical Sfp PPTase activity, qHTS; Potency, µM, inactives show max response, negative = inhibition, actives largely listed as inhibitors; hit rate 3.5% among 310,000; AID 1490, 2009; active = well fitted inhibition curve with a large enough effect; inconclusive = small, poorly fitted or top-dose-only effect, or another doubt; inactive = no such curve, though single readings can be large or run the other way;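 also: the enzyme is Sfp with the accession as filed and its product quenches rhodamine fluorescence; potency is read from the fitted curve at half-maximal effect; 0% = enzyme reaction without inhibitor and -100% = no enzyme wells; top concentration of the series not given in the record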
#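 After 15 min at room temperature with compound, 15 nM Sfp received 5 uM rhodamine-CoA plus 12.5 uM BHQ-2-ybbR (50 mM Hepes pH 7.6, 10 mM MgCl2). Rate came from the fluorescence difference over 30 min, ex 525/em 598 nm.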
# TRPML1 inh = qHTS for Inhibitors of the Human Mucolipin Transient Receptor Potential 1 (TRPML1) | TRPML1-inducible cells, Ca2+ dye fluorescence, FDSS; active compounds read low; inhibition of EC80 agonist-evoked calcium signal | hit rate 0.02% among 390,000 | activity change, negative = inhibition, % (no concentration beside the values) | AID 624415, 2012; in the data active means activity change below about -50%; inconclusive means about -30% to -50%; inactive means above about -30%;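 also: stimulus is agonist 54-4 at its EC80 concentration; % is scaled to controls: 0 for no effect and ±100 for the full control effect; compound concentration not given in the record; the text of the record puts the active cut at -80%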
# Target sequence (Q9GZU1 whole entry, looked up): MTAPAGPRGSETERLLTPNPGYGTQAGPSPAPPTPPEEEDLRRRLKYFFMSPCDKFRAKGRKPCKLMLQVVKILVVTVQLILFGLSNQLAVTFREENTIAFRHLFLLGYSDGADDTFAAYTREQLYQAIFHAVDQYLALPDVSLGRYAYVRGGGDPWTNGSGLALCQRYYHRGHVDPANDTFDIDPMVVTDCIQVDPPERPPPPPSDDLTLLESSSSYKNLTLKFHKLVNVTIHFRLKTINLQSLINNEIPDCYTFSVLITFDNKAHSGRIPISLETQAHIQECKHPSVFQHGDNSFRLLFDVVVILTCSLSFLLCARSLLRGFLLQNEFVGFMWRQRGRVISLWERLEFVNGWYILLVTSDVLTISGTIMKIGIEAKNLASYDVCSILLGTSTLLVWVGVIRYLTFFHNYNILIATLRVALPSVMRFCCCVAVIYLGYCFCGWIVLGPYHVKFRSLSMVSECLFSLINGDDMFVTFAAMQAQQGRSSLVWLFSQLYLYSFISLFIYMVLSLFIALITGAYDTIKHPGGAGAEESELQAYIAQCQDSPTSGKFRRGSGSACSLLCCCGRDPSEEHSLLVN
#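 TRPML1-DL cells, Tet-induced overnight (~16 h, 37 °C) at 1,500 cells/well, were loaded with Ca8 no-wash dye plus quencher for 45-90 min at room temperature. Compounds were pinned during FDSS kinetic reading; agonist 54-4 at EC80 (4 uM final) then added.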
# Menin-MLL FL inh = qHTS Assay for Inhibitors Targeting the Menin-MLL Interaction in MLL Related Leukemias: Competition With Fluorescein Labeled MLL-derived Peptide; Fluorescence polarization, fluorescein-MLL peptide displacement from menin; FP activity change, % at 61.4 µM; 290,000 tested, under 10 active; AID 1766, 2009; inconclusive = falling polarisation curve, or a change in total fluorescence; inactive = total fluorescence flat and polarisation flat or rising; no compound was filed as active; the % refers to the polarisation; negative = inhibition;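 also: % of control where 0% means no effect; inhibitors lower the polarisation; unlabelled MLL peptide was the positive control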
# TRPV1 PAM = HTS Assay for Compounds that Act as Potentiators of the Vanilloid Receptor 1. Transient receptor potential cation channel subfamily V member 1 (Homo sapiens), Q8NER1. potentiation, % at 8.33 µM. hit rate 0.02% among 320,000. TRPV1-expressing cells, Fluo-8 calcium influx, capsaicin EC20 potentiation; host cell line not named in the record; control for the full effect not named in the record; active means potentiation above 80%; inconclusive means 30% to 80%; inactive means below 30%; also: 0% is about no effect
#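 Cells expressing TRPV1 were dye-loaded with Fluo-8 and read kinetically: 10 s baseline, 3 min after compound (agonist portion), then 2 min after EC20 capsaicin (allosteric enhancer portion). Calcium-bound dye fluorescence at 480/520 nm.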
# ClpP mod = qHTS Assay for Activators of ClpP. purified B. subtilis ClpP, FRET peptide cleavage, 20 min. hit rate 1.9% among 340,000. Potency, µM (series often up to 57.5 µM), for the others: top-dose activity change, negative = active; active = well fitted falling curve with a large enough effect; inconclusive = small, poorly fitted or top-dose-only effect; inactive = no such curve, though single readings can be large or run the other way; also: potency is read from the fitted curve at half-maximal effect; the source files actives as falling curves though it sought activators and does not explain the sign; nearly all actives have a fitted effect of over 65% in size; many hits overshoot -100%
# Target sequence (P80244 whole entry, looked up): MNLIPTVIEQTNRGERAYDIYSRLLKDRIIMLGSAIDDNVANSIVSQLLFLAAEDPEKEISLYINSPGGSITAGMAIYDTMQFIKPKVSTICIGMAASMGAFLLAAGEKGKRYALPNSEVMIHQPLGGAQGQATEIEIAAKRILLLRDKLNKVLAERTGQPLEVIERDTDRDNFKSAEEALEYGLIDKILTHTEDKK
#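 Purified B. subtilis ClpP, 10 microg/mL final in Tris/HCl pH8 with KCl, BSA, glycerol and Tween-20, cleaved an Abz/nitrotyrosine-quenched decapeptide. Fluorescence (ex 320, em 430) was read at 0 and 20 min at room temperature. Delta was normalized to 5.8 microM ADEP and DMSO/no-enzyme controls.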
# An asterisk follows results filed as active; ? = inconclusive; nt = not tested or not shown; & = joins results of further samples; [ ] = remark or other dose.
SMILES,gsp ag,gsp antagonist,Sfp PPTase inh,TRPML1 inh,Menin-MLL FL inh,TRPV1 PAM,ClpP mod
CC(C)c1ccc(N2C(=O)CC(NNC(=O)c3ccccc3Cl)C2=O)cc1 (configuration not stated),-16%[15.4 µM],6%,-12%,-1,-2.5,-8,nt
CC1(C)Cc2ccccc2/C(=C/C(=O)N2CCCCCC2)N1,4%,-25%,-28%,17,1.1,18,-0.6%
O=C(CSc1nc(-c2ccccc2)nc2ccccc12)Nc1nccs1,?,17%,-1%,1,0.5,22,5.2%
COc1ccc(-c2c(C#N)c(SCC(N)=O)nc3c2CCCC3)cc1,-26%,-7%,-2%,-3,-0.7,-3,?
CC(=O)c1cccc(NC(=O)C(OC(=O)c2cccc(S(=O)(=O)N(C)c3ccccc3)c2)c2ccccc2)c1 (configuration not stated),-7%[15.4 µM],-1%,31%[activator],10,10.0,6,0.1%
Cn1cnc(S(=O)(=O)NCc2cccs2)c1,?,0%,21%,27,-0.7,-2,-0.7%
COc1cccc(Cn2cc(C)cc(NC(=O)NCc3ccccc3)c2=O)c1,-25%,2%,18%,14,-0.1,-4,4.4%
CCC(=O)Nc1nnc(C(C)(C)C)s1,1%,4%,12%,-2,0.5,3,0.2%
CC(=O)N1c2ccc(S(=O)(=O)N3CCCC3)cc2CC1C(=O)NC(C)C (configuration not stated),2%,-19%,19%,-4,nt,-3,-2.1%
COc1ccc(CNC(=O)c2ccc(N(C)S(=O)(=O)c3ccc(C)cc3)cc2)cc1,-7%,-2%,6%,4,nt,16,-2.8%
Cc1nc(CSc2nnc(C)s2)cs1,1%,-3%,0%,-1,4.8,-4,-2.8%
COc1ccc(NC(=O)Cn2nc(Cc3cccnc3)c3ccccc3c2=O)c(OC)c1,?,-16%,?,0,11,-15,-1.0%
COc1ccc(C2=C/C(=C\c3ccccc3OC(C)=O)C(=O)O2)cc1,-17%,-8%,-6%,nt,1.7,18,-0.4%
COc1ccc(S(=O)(=O)Nc2cccc3c2O[C@H](CN(C)Cc2ccc(C(=O)O)cc2)[C@@H](C)CN([C@H](C)CO)C3=O)cc1,nt,5%,nt,20,nt,nt,-1.8%
CC(C)C1C(C#N)=C(N)Oc2n[nH]c(-c3cccs3)c21 (configuration not stated),-74%[inhibitor],1%,13%,7,1.5,14,-1.9%
Cn1c(=O)c2c(ncn2CCOC(=O)C(C)(C)Oc2ccc(Cl)cc2)n(C)c1=O,?,nt,14%,16,1.0,nt,-0.3%
COC(=O)C1CCN(C(=O)C2CCN(C(=O)[C@H](C)NS(=O)(=O)c3ccc(C)cc3)CC2)CC1,nt,-2%,23%,nt,-5.2,-8,-4.5%
CCn1nc(C)c(NC(=O)c2ccc(Br)o2)c1C,0%,8%,6%,4,-0.6,1,-3.0%
Cc1ccc(S(=O)(=O)N2CCC(C(=O)N3CCc4ccccc43)CC2)cc1,8%[15.4 µM],-13%,19%,4,nt,-7,0.9%
COc1ccccc1CNC(=O)C1CCN(S(=O)(=O)c2cccc3nonc23)CC1,-14%[15.4 µM],6%,11%,-8,7.4,14,nt
COC(=O)CN1C(=O)C(O)(CC(=O)c2ccc(Br)cc2)c2ccccc21 (configuration not stated),-31%[inhibitor],6%,13%,-6,0.0,26,1.9%
C/C(=N\Nc1ncc(Cl)cc1Cl)c1ccc(N2CCOCC2)cc1,-14%[15.4 µM],11%,25µM*,3,-4.6,-9,-0.3%
O=C(CC(Nc1ccc(F)cc1)c1ccccc1)c1ccccc1 (configuration not stated),-5%[15.4 µM],-6%,4%,-18,-4.4,-8,nt
CCSc1nc(-c2ccccc2)c(-c2ccccc2)n1CC(O)CO (configuration not stated),-41%[inhibitor],-2%,10%,-14,1.7,-2,3.8%
O=C(NCCC1=CCCCC1)c1cc(-c2ccncc2)nc2ccccc12,5%[15.4 µM],10%,-13%,-5,-0.9,-17,nt
O=C(O)C1C2C=CC3(CN(Cc4ccco4)C(=O)C13)O2 (configuration not stated),-19%,5%,-23%,17,4.0,nt,0.1%
COc1ccc(CCNC(=O)CSc2ccccn2)cc1,?,9%,-9%,6,1.9,-14,nt
COc1cccc(N2C(=O)C3C(C2=O)C2C=CC3C23CC3)c1 (configuration not stated),-16%,-11%,15%,1,1.6,-2,-2.5%
COc1cc(C(C)=O)ccc1OCC(=O)OC(C)C(=O)c1ccc(F)cc1 (configuration not stated),-16%,-16%,nt,-1,nt,nt,1.9%
COc1ccccc1Oc1c(C)oc2cc(OC(=O)c3ccco3)ccc2c1=O,4%,?,-5%,4,-0.6,-1,170%
CCCCC(c1nnnn1CC1CCCO1)N1CCN(c2nc3ccccc3s2)CC1 (configuration not stated),10%,-3%,-10%,15,-3.8,-4,1.8%
CCOC(=O)CNc1nc(Cl)c(C#N)s1,18%,-3%,5%,20,4.9,-25,-0.7%
CC(C)Nc1nc(NC(C)C)nc(SCCOC(=O)Nc2ccc(Cl)cc2Cl)n1,-1%,-7%,1%,18,1.1,12,-1.7%
CC1CCCC(NCC(O)COC(c2ccc(F)cc2)c2ccc(F)cc2)C1C (configuration not stated),-16%[15.4 µM],11%,-26%,18,-7.8,-7,nt
Nn1c(SCC(=O)Nc2ccccc2F)nnc1C1CCCCC1,-18%,0%,-4%,-13,0.1,-3,-0.3%
COc1ccc(C(=O)O/N=C(\N)c2ccc(OC)c(OC)c2)cc1,5%,11%,-2%,14,-3.9,3,-2.1%
CSc1nc(C)c(C(=O)C[n+]2ccc(C)cc2)cc1C#N,-10%,6%,2%,-10,0.2,-6,-0.5%
O=S(=O)(Nc1ccc(Cl)cn1)c1cccs1,-15%[15.4 µM],-1%,16%,-6,3.8,?,nt
O=C(CN1C(=O)S/C(=C\c2ccccc2)C1=O)NC1CCS(=O)(=O)C1 (configuration not stated),22%,8%,7%,0,nt,-6,nt
S=C(NCC1CCCO1)NC12CC3CC(CC(C3)C1)C2 (configuration not stated),22%[15.4 µM],-19%,13%,-3,3.1,-29,nt
CNCCCc1[nH]nc(N)c1C#N,-14%,8%,4%,-10,2.5,12,-1.1%
CCOC(=O)C1=C(C)NC(C)=C(C(=O)OCC)C1C(=O)OCC(=O)N1CCCCC1CC (configuration not stated),-8%&-48%,0%&-3%,3%,10&8,1.2,-1,-12%
Cc1ccc(OCC(=O)NNC(=O)c2cccnc2)cc1C,-14%[15.4 µM],11%,-17%,4,5.9,13,nt
CN1CCN(CCCn2cnc3c(=O)oc4ccccc4c32)CC1,15%,8%,2%,8,3.5,0,3.4%
O=C(O)C1CCCCC1C(=O)N1CC=C(c2ccccc2)CC1 (configuration not stated),-27%,2%,11%,-19,1.9,5,-5.7%
COc1ccc(NC(=O)c2cc(S(=O)(=O)N3CCc4ccccc43)cn2C)c(OC)c1,-1%,-2%,3%,-10,1.0,16,-9.3%
CCc1ccccc1NC(=O)CSc1nc2[nH]c(=O)cc(O)c2s1,15%[15.4 µM],3%,?,9,14,1,nt
COc1ccc(-c2nnc(CSc3nnc(-c4ccncc4)n3C3CCCCC3)o2)cc1OC,-4%,-13%,1%,11,-2.9,18,-0.1%
COC(=O)c1ccccc1N=Nc1c(C)noc1C,0%[15.4 µM],-2%,14%,-3,1.3,-10,nt
Cc1ccc2nc(SCC(=O)Nc3cccc(S(=O)(=O)N(C)C)c3)[nH]c2c1,-57%[inhibitor],1%,-1%,-17,-2.5,-5,0.7%
CCCOC(=O)CCNc1n[nH]c(=O)[nH]c1=O,-19%,-5%,-4%,4,1.4,-2,-0.9%
O=C(/C=C/c1ccccc1[N+](=O)[O-])NNC(=O)c1ccncc1,-52%[inhibitor],10%,nt,-7,nt,?,-2.9%
Cc1ccccc1NC(=O)Cn1nc(C)n2cccc2c1=O,2%,8%,13%,9,0.0,3,2.4%
Cc1ccc(C)c(NS(=O)(=O)c2csc(C(N)=O)c2)c1,15%,-3%,18%,19,-7.2,2,nt
CNc1c(C(=O)O)ccc2c1C(=O)c1ccccc1C2=O,-60%[inhibitor],?,2%,11,3.4,-11,0.3%
S=C(Nc1ccc(Br)cc1)NC1CCN(Cc2ccccc2)CC1,19%,2%,6%,-14,-3.2,-2,-0.4%
COc1ccc(-n2nc3ccccc3n2)cc1,?,-8%,-20%,-5,3.7,8,-4.4%
Cc1cc(NC(=O)CN2CCC(O)(c3cccc(F)c3)CC2)no1,-20%,13%,18%,1,-0.2,9,3.1%
Cc1ccc(NC(=O)CN(C)C(=O)c2cc3c(s2)CCCCC3)cc1,4%,-10%,nt,-29,nt,-17,0.0%
O=C(Nc1ccc(C(F)(F)F)cc1)c1cnc(N2CCN(c3ccccn3)CC2)c2ccccc12,-11%[15.4 µM],-6%,21%,25,0.5,-3,nt
# (next part)
SMILES,gsp ag,gsp antagonist,Sfp PPTase inh,TRPML1 inh,Menin-MLL FL inh,TRPV1 PAM,ClpP mod
Cn1c(=O)oc2cc(S(=O)(=O)NCCC(=O)N3CCc4ccccc43)ccc21,-16%,9%,7%,-3,3.4,5,0.7%
CCC(C)NC(=O)CSc1nnc(-c2ccc(C(C)(C)C)cc2)n1C (configuration not stated),16%,1%,9%,57,0.1,-7,-3.1%
Cc1noc(C)c1COC(=O)c1cnc(Cl)c(Cl)c1,1%[15.4 µM],-22%,-1%,-8,-3.8,1,nt
COc1cccc2c1C(=O)C=C(C)C2=O,-2%[15.4 µM],-2%,-4%,18,1.3,8,0.3%
